KAT2A inh – blocks human GCN5L2 histone acetyltransferase; Potency, µM (top dose mostly 58.9 µM), for inactives: top-dose activity change, negative = inhibition, most hits filed as inhibitors; GCN5L2 HAT assay, ThioGlo1 CoA-SH fluorescence; 390,000 compounds, 0.21% hits; active means well fitted inhibition curve with a large enough effect; inconclusive means small, poorly fitted or top-dose-only effect, or another doubt; inactive means no such curve, though single readings can be large or run the other way
Target sequence (Q92830 whole entry, looked up): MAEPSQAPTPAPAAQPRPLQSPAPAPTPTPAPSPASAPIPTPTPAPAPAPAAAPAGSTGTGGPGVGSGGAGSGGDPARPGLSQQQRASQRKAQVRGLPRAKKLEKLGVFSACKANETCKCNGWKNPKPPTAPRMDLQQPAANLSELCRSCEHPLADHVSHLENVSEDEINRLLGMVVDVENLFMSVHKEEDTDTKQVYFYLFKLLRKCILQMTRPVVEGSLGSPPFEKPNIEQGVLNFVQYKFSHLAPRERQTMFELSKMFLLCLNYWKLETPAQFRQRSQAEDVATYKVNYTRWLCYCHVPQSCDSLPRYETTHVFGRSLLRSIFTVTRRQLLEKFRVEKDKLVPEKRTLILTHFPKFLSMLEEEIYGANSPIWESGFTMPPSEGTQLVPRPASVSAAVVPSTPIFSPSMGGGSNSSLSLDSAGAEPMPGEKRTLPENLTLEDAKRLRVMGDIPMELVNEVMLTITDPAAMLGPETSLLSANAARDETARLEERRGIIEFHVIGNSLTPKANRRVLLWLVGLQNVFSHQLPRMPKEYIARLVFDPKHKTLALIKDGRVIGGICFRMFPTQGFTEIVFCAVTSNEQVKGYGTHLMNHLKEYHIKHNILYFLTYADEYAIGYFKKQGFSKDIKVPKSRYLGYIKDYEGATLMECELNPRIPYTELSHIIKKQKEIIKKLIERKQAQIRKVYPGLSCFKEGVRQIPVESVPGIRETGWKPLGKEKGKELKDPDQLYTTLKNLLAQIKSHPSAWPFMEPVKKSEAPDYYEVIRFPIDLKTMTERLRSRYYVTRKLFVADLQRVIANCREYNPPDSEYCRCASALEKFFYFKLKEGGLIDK
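GCN5L2 (20nM final) in 50mM HEPES, 0.1mM EDTA pH 7.5, 0.01% Tween-20 was preincubated 15 min at room temperature with compound, then given ThioGlo1 (50uM), H3(1-25) peptide (75uM) and acetyl-CoA (70uM); CoA-thiol fluorescence (Ex340/Em540) was read at 0 and 20 min.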
Starred values were filed as active, the others as inactive; ? = inconclusive; & = joins results of further samples. On the % scale 0 is the no-effect control and ±100 the full control effect; potency means the concentration at half of the fitted maximal effect. Not all compounds are listed; most or all hits stand in other tables.

#	SMILES	KAT2A inh
1	Cc1c(C(=O)N(C)C)sc2c1c(=O)n(-c1ccc(Cl)cc1)c(=O)n2Cc1ccccc1F	-1%
2	N#Cc1c(SCC(=O)O)nc(N2CCCCC2)c2c1CCCC2	-3%
3	CC(=O)Nc1cccc2c1C(=O)N(c1ccccc1C)C2=O	-4%
4	O=C(Nc1ccc2ccccc2c1)/C(=C/c1cccc(Br)c1)NC(=O)c1ccco1	-5%
5	Cc1nc2sc(C(c3cccs3)N3CCN(C(=O)c4ccco4)CC3)c(O)n2n1 (centres undefined)	-19%
6	CCOc1ccc(NC(=O)CN2C(=O)NC(CCc3ccccc3)C2=O)cc1OCC (centres undefined)	-1%
7	O=C(COC(=O)c1cccc(S(=O)(=O)N2CCOCC2)c1)Nc1ncc(C(F)(F)F)cc1Cl	-3%
8	COCCN1C=C(C(=O)OC)C(c2ccccc2Cl)C(C(=O)OC)=C1	-4%
9	CCOc1cc(C2C(C#N)=C(N)Oc3n[nH]c(C)c32)ccc1OCCN1CCOCC1 (centres undefined)	3%
10	COc1ccc(NC(=S)NNC(=O)OC(C)(C)C)cc1OC	-4%
11	CCOc1ccc(N(CC(=O)NCCOc2ccccc2OC)S(=O)(=O)c2ccccc2)cc1	-9%
12	CN1C(C(=O)NC(C)(C)C)=CC(c2ccc3c(c2)OCO3)=NS1(=O)=O	-3%
13	COc1cc2c(cc1OC)C(C(=O)NCc1ccco1)C1c3ccccc3CCN1C2=O (centres undefined)	-2%
14	CCC(=O)Nc1ccc(C(=O)c2ccccc2)cc1	0%
15	COc1ccc(C2=NCCn3cccc32)c(OC)c1	-3%
16	Cc1cccc(C)c1-n1nnnc1SCC(=O)c1c(N)n(C2CC2)c(=O)[nH]c1=O	-30%
17	Cc1cccc2sc(NC(=O)Cn3cccc3)nc12	-1%
18	CC(C)(C)NS(=O)(=O)c1ccc2nc(NC(=O)c3cccnc3)sc2c1	-8%
19	O=c1c2ccccc2nnn1CSc1nc2ccccc2[nH]1	-3%
20	COC(C(=O)Nc1ccnn1C1CCN(Cc2ccc(CO)o2)CC1)c1ccccc1 (centres undefined)	0%
21	O=C(NCc1ccccc1)C1CCCN(S(=O)(=O)c2cccc3nsnc23)C1 (centres undefined)	-10%&-6%
22	Cc1cc2c(c(=O)n1C)C(C(C)C)C(C#N)=C(N)O2 (centres undefined)	1%
23	Cc1nc2cc(NC(=O)Nc3nccs3)ccc2n1C	-3%
24	Cc1ccc(Nc2nc(N)nc(CSCCO)n2)cc1	-1%
25	COc1ccc(-c2nc(-c3cccc(C)c3)[nH]c(=O)c2C#N)cc1	22%

3 structures already listed, sorted by number of heavy atoms, ascending.
#	SMILES	KAT2A inh
24	Cc1ccc(Nc2nc(N)nc(CSCCO)n2)cc1	-1%
2	N#Cc1c(SCC(=O)O)nc(N2CCCCC2)c2c1CCCC2	-3%
12	CN1C(C(=O)NC(C)(C)C)=CC(c2ccc3c(c2)OCO3)=NS1(=O)=O	-3%

Continued.
#	SMILES	KAT2A inh
26	COc1cc(NC(=O)CCc2c(C)nc3nc(-c4cc(OC)cc(OC)c4)nn3c2C)cc(OC)c1	0%
27	C=C1CCC(N(O)c2cc(C)on2)C(=C)CCC2C1CC2(C)C (centres undefined)	-6%
28	CCCCC(=O)Nc1ccc(C(=O)Nc2ccc(OC)cc2[N+](=O)[O-])cc1	18%
29	O=C(Nc1ccc2c(c1)C(=O)N(CC1CCCO1)C2=O)c1ccccc1Br (centres undefined)	-7%
30	Cc1ccc(NC(=O)CN(C)C(=O)COC(=O)C(C)(C)Oc2ccc(Cl)cc2)cc1	-14%
31	COc1ccc(-n2nnnc2-c2cn(C)nc2C(F)(F)F)cc1	-5%
32	O=C(CSc1ccc2nnc(-c3ccccn3)n2n1)N1CCOCC1	-10%
33	COCCCn1c(=N)c(C(=O)NC2CCCCC2)cc2c(=O)n3ccccc3nc21	-6%&-9%
34	CCc1nnc(NC(=O)C2CCCN2C(=O)Nc2ccc(Cl)cc2)s1 (centres undefined)	4%
35	Cc1cc(C(=O)N2CCC(C(N)=O)CC2)c(C)o1	2%
36	COc1cccc(-c2cc3onc(-c4ccccc4)c3c(=O)n2C)c1	-9%
37	CS(=O)(=O)c1ccc(-c2sc3ccccc3c2C(=O)NCCCN2CCOCC2)cc1	-1%
38	COc1cccc(C2(O)CCN(CC(=O)NCC3CC3)CC2)c1	-1%
39	COc1cccc(NC(=O)N2CCC(NC(=O)C3CCCCC3)CC2)c1	-6%
40	O=C1CCN(c2ccc([N+](=O)[O-])cc2F)CC1	-1%
41	CC(=O)NC(Cc1ccc(F)cc1)C(=O)O (centres undefined)	-1%
42	COc1ccc(-n2c(SCC(=O)Nc3ccccc3C)nc(O)c(Cc3ccccc3)c2=O)cc1	-3%
43	COc1cc(-c2nc(S(=O)(=O)c3ccc(C)cc3)c(N(C)C)o2)cc(OC)c1OC	-4%
44	COc1cc(C(=O)NC(C)C2CC3CCC2C3)ccc1OC(F)F (centres undefined)	-4%
45	N#Cc1sc2nc3c(cc2c1N)CCCC3	-1%
46	O=C(O/N=C1/CCCc2occc21)c1ccc(Cl)cc1Cl	-4%
47	CC(C)(C)OC(=O)C[C@H]1C/C=C\C[C@H](CC(=O)NCCO)C(=O)NCCOC1=O	-1%
48	CCN(C(=O)COC(=O)c1[nH]c(=O)[nH]c(=O)c1N)c1ccccc1	-8%
49	Fc1ccc(Oc2nnnn2-c2ccccc2)cc1	-6%
50	CCOCCc1nn2c(=O)cc(COC(=O)c3ccccc3Br)nc2s1	-14%

Some of these compounds in order of their number in KAT2A inh, smallest number first:
no.	mol	KAT2A inh
36	COc1cccc(-c2cc3onc(-c4ccccc4)c3c(=O)n2C)c1	-9%
49	Fc1ccc(Oc2nnnn2-c2ccccc2)cc1	-6%
8	COCCN1C=C(C(=O)OC)C(c2ccccc2Cl)C(C(=O)OC)=C1	-4%
9	CCOc1cc(C2C(C#N)=C(N)Oc3n[nH]c(C)c32)ccc1OCCN1CCOCC1 (centres undefined)	3%

Next section:
#	SMILES	KAT2A inh
51	CCOC(=O)C1=C(N)n2c(s/c(=C\c3ccncc3)c2=O)=C(C(=O)OCC)C1c1ccncc1 (centres undefined)	15%
52	CC1(C)C(=O)Nc2ccccc2N1C(=O)COC(=O)c1cccs1	-7%
53	O=[N+]([O-])c1ccc(N/N=C/c2cn(-c3ccccc3)nc2-c2ccccc2)cc1	-6%
54	CC(C)c1nc(C#N)c(N2CCOCC2)o1	-1%
55	CCN(c1ccccc1)S(=O)(=O)c1cc(C(=O)Oc2ccc3c(C)cc(=O)oc3c2)ccc1C	-5%
56	CCCCn1c(N)c(N(C(=O)CSc2nnnn2-c2ccccc2C)C2CCCC2)c(=O)[nH]c1=O	0%
57	Cc1csc(SCc2nc3scc(-c4ccccc4)c3c(=O)[nH]2)n1	-12%
58	O=C(COc1ccccc1)Nc1cccc(-c2nnc(-c3ccccc3)o2)c1	-1%
59	CCN(c1ccc(NC(=O)COC(=O)CCc2cc(OC)c(OC)c(OC)c2)cc1)C(C)C	-5%
60	CC(=O)C1=C(C)NC(=O)NC1c1cccc([N+](=O)[O-])c1O (centres undefined)	-5%
61	Cc1[nH]c2ccccc2c1C(=O)CSc1nc2ccccc2[nH]1	-20%
62	CC(C)(C)c1ccc(COC(=O)CN2C(=O)NC3(CCCC3)C2=O)cc1	-8%
63	O=C(COC(=O)C1CCN(S(=O)(=O)c2cccc3cccnc23)CC1)c1ccc(F)cc1	-7%
64	CC(=O)N(C)c1ccc(OCC(O)Cn2c3ccc(Cl)cc3c3cc(Cl)ccc32)cc1 (centres undefined)	-7%
65	CC1=C(C(=O)Nc2ccccc2C(=O)NC2CCCCC2)SCCO1	-25%
66	Cc1c(C(=O)OCC(=O)Nc2ccc(S(N)(=O)=O)cc2)oc2c1ccc1ccccc12	19%
67	Cc1cccc(Cn2cc(C(=O)Nc3ccc(S(N)(=O)=O)cc3)ccc2=O)c1	-7%
68	Cc1cc(C)n2[nH]c(=O)c(N=Nc3ccc(S(N)(=O)=O)cc3)c2n1	-16%
69	CCC(Oc1ccccc1)C(=O)Nc1ccc(C)c(S(=O)(=O)N2CCOCC2)c1 (centres undefined)	-3%
70	COc1cc(/C(C)=N/Nc2ccc(C(=O)O)cc2)cc(OC)c1OC	-2%
71	COc1cccc2sc(NC(=O)c3ccc(S(=O)(=O)N4CCOCC4)cc3)nc12	-19%
72	COc1ccc(-c2nnc(SCC(=O)Nc3cc(OC)ccc3OC)nc2-c2ccc(OC)cc2)cc1	1%
73	O=C(c1ccc(Br)c(S(=O)(=O)N2CCCCC2)c1)N1CCCCC1	-3%
74	COc1ccc(OC)c(NC(=O)COc2ccc3c(c2)CCC3)c1	-12%
75	CC(=O)Nc1ccc(S(=O)(=O)N2CCN(c3cc(C)nc4ccccc34)CC2)cc1	-4%

3 neighbouring compounds already listed, quoted:
#	SMILES	KAT2A inh
73	O=C(c1ccc(Br)c(S(=O)(=O)N2CCCCC2)c1)N1CCCCC1	-3%
74	COc1ccc(OC)c(NC(=O)COc2ccc3c(c2)CCC3)c1	-12%
75	CC(=O)Nc1ccc(S(=O)(=O)N2CCN(c3cc(C)nc4ccccc34)CC2)cc1	-4%

(next part)
#	SMILES	KAT2A inh
76	Fc1ccc(CSc2nnc(-c3ccco3)o2)cc1	2%
77	CC(=O)Nc1cc(C(F)(F)F)ccc1OCC1CCCO1 (centres undefined)	-2%
78	CCCCCCCCNC(=O)CCNC(=O)c1ccc(C(C)(C)C)cc1	-15%
79	CN(C)CCN1C(=O)C(=O)/C(=C(/O)c2ccc3c(c2)OCCO3)C1c1ccccn1 (centres undefined)	-1%
80	CCOc1cc(C#N)ccc1OCC(=O)NNC(=O)CC1CCS(=O)(=O)C1 (centres undefined)	-10%
81	CCN(CC)S(=O)(=O)c1ccc(Cl)c(OC)c1	5%
82	Cc1ccc(S(=O)(=O)N2CCN(C(=O)C(Cc3ccccc3)NC(=O)c3ccccc3)CC2)cc1 (centres undefined)	1%
83	CC(C)c1cc(NCC2CCCO2)n2c(nc3ccccc32)c1C#N (centres undefined)	-15%
84	CCC(C)NS(=O)(=O)c1ccc(NC(=O)Cc2ccc(OC)cc2)cc1 (centres undefined)	-4%
85	CC(=O)Oc1c(C(=O)c2nnc(C)o2)c(=O)n(Cc2ccccc2)c2ccccc12	-4%
86	C/C(=N/NS(=O)(=O)c1ccccc1)c1ccc(NC(=O)C2CC2)cc1	3%
87	O=C(CNC(=O)c1ccccc1F)NCc1ccncc1	-1%
88	Cc1cc2oc(C(=O)NCc3ccncc3)c(C)c2cc1C	-5%
89	CC(C)(C)C1CCC(C(=O)OCC(=O)Nc2ccc3[nH]c(=O)[nH]c3c2)CC1 (centres undefined)	-10%
90	COCC(=O)Nc1ccc(F)cc1	-2%
91	O=C(NCCc1ccc(Cl)cc1)c1ccc(=O)[nH]c1	-27%
92	CCN(CC)S(=O)(=O)c1ccc2nc(NC(=O)c3cncc(Br)c3)sc2c1	-3%
93	NC(=O)C1=C[C@H](c2ccccc2)C[C@H](OCc2ccc(CO)cc2)O1	1%
94	CCCN(CCC)CC(O)Cn1cc(/C=C/C(=O)c2ccccc2)c2ccccc21 (centres undefined)	-8%
95	CC1CC(C)CN(CC(=O)N2c3ccccc3CCc3ccccc32)C1 (centres undefined)	0%
96	CC(C)C1Cc2c(sc3[nH]c(=S)n(Cc4ccccc4)c(=O)c23)CO1 (centres undefined)	-1%
97	CC(C)c1ccc(/C=N/NC(=O)c2nnn(-c3nonc3N)c2CN(C)C2CCCCC2)cc1	-5%
98	COc1cccc(C(=O)NNC(=O)Cc2csc(N)n2)c1	-5%
99	CC(C)=CC(=O)N1CC[C@@H](N2CCN(c3ccccc3F)CC2)[C@H](O)C1	-13%
100	Cn1c(N)c(C(=O)COC(=O)c2cccc(S(=O)(=O)N3CCOCC3)c2)c(=O)n(C)c1=O	-3%
101	O=C(OCC(=O)N1CCCc2ccccc21)c1cc(S(=O)(=O)N2CCOCC2)ccc1O	-8%
102	Cc1cccc(OCc2nnc(SCC(=O)c3cccs3)n2C)c1C	-3%
103	COc1ccc2nc(-c3ccc(Cl)cc3)cc(C(=O)O)c2c1	-14%
104	Cc1cc(F)ccc1NC(=O)c1ccc2nc(Cc3ccccc3)oc2c1	-6%
105	O=S(=O)(Cc1cnc(Cl)s1)c1ccccc1	1%
106	O=C(Nc1ncc(Cc2ccccc2)s1)c1cccs1	-11%
107	Cc1c(/C=N/n2cnnc2)c2ccccc2n1C	3%
108	Cc1ccc(-c2csc3ncnc(SCC(=O)Nc4nnc(C)s4)c23)cc1	1%
109	O=C(Cn1c(=O)sc2ccccc21)OC(CCl)CCl	-11%
110	CC(=O)N1CCCc2cc(S(=O)(=O)N3CCC(C(=O)Nc4c(C)cccc4C)CC3)ccc21	-2%
111	O=C(CCCn1c(=O)[nH]c2ccsc2c1=O)N1CCN(Cc2ccc3c(c2)OCO3)CC1	-5%
112	COc1cc2c(cc1OC)CC1(CCCCC1)N=C2	1%
113	CCO[C@H]1OC(C(=O)O)=C[C@@H](c2ccc(C(F)(F)F)cc2)[C@@H]1CCCO	1%
114	O=C(Nc1ccc(S(=O)(=O)N2CCCCCC2)cc1)C1CCCO1 (centres undefined)	-2%
115	CCOc1ccc(NS(=O)(=O)c2ccc(C(=O)N3CCCC3)cc2)cc1	?
116	CCc1c(C(=O)Nc2cc(C)cc(C)c2)[nH]c(C)c1C(C)=O	-2%

High-throughput results from PubChem.
